Mtb bLac sens: beta-lactam sensitization of Mtb H37Rv | 330,000 compounds, 0.27% hits | M. tuberculosis H37Rv growth with meropenem, percent inhibition; hits of this screen are not shown here | inhibition, % at 25 µM;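 active = about 74% or more and at least 40 points above the plate without the antibiotic, then above 30% in a dose series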;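 note: growth measured after seven days incubation then overnight dye step; 0% = bacteria only wells and 100% = bacteria with antibiotic; twin plates without the antibiotic show which effects depend on it; some results filed as inactive read as strong as hits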
Arbovirus inh: antivirals against arbovirus infection | inhibition, % at 10 µM | arbovirus infection cell-based antiviral screen | 200,000 compounds, 0.37% hits;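 active = inhibition from about 30%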;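 note: bluetongue infection of BSR cells; cell survival read as ATP light after 72 h; 0% = infected wells without compound and 100% = uninfected wells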
RecA intein inh: blocks M. tuberculosis RecA intein splicing | P9WHJ3 | cell-free RecA intein splicing, fluorescence | inhibition, %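 (about 9 µM by stock and volumes)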 | 290,000 compounds, 0.75% hits; in the data active = inhibition above about 30%;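 note: 0% = vehicle wells and 100% = reference inhibitor control wells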
Target sequence (P9WHJ3 whole entry, looked up): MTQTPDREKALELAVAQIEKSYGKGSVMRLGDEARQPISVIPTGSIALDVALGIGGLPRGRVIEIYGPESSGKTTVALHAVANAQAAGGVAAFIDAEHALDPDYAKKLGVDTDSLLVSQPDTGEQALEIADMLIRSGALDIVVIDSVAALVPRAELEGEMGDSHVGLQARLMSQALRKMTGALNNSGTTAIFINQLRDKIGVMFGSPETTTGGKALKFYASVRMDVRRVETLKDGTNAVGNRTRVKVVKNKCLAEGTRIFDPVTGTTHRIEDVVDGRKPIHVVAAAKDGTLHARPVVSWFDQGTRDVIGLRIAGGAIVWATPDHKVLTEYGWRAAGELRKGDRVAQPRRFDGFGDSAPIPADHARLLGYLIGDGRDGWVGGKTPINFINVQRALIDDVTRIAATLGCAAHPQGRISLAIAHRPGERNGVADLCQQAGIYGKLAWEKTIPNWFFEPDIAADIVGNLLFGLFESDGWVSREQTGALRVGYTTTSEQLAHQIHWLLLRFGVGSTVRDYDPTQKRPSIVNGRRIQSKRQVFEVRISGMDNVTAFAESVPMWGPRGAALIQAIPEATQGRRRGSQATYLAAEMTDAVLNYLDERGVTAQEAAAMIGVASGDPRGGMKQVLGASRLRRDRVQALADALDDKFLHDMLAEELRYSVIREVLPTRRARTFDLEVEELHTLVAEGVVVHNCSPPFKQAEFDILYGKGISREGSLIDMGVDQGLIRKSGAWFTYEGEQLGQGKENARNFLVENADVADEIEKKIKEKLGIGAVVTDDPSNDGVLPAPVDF
YopH PTP inh: blocks Yersinia enterocolitica YopH tyrosine phosphatase. fluorescence Ex485/Em525. inhibition, %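 (about 10 µM by stock and volumes)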. 140,000 compounds, 0.16% hits. AID 898;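 active = inhibition of 50% or more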;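 note: controls were vehicle for no effect and minimum signal wells for full effect; inactives centre near -20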
Mtb H37Rv: M. tuberculosis H37Rv growth inhibitors, H37Rv strain (AID 1626); M. tuberculosis H37Rv growth inhibition; higher % means a stronger effect; inhibition, % at 10 µM, or IC50 in µM where a hit was titrated; 220,000 compounds, 0.95% hits;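 active = confirmed in a dose series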;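 note: bacteria incubated seven days before Alamar blue readout; 0% = bacteria only wells and 100% = bacteria with antibiotic wells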
Arbovirus inh repeat: further read-out of Arbovirus inh, marked with its call; inhibition, %; measured here: 10K subset replicate screen; many hits read low in the repeat;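 first of two repeat runs on a subset; 0% = infected and 100% = uninfected wells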
An asterisk follows results filed as active.

`Cc1cc(=O)oc2cc(OC(C)C(=O)Nc3ccc(N4CCCCC4)cc3)ccc12` (configuration not stated) gave Mtb bLac sens 2 and RecA intein inh -1.2.
`COc1cc(-c2noc(C)c2-c2ccc3[nH]ccc3c2)cc(OC)c1OC` gave Mtb bLac sens 35 and RecA intein inh 10.0.
For CCOC(=O)c1ccc(NC(=O)c2cc(S(=O)(=O)N3CCOCC3)ccc2O)cc1 the results were Mtb bLac sens 27, Arbovirus inh 11, YopH PTP inh -16 and Mtb H37Rv 9%.
For Cc1cccc(NC(=O)C2COc3ccccc3O2)n1 (configuration not stated) the results were Mtb bLac sens -5, RecA intein inh 0.0 and Mtb H37Rv 1%.
Screening Cc1c(NC(=O)c2ccc3c(c2)OCO3)cccc1-c1nc2ncccc2o1 returned Mtb bLac sens -4, Arbovirus inh 0, RecA intein inh -0.5, YopH PTP inh 5, Mtb H37Rv -6% and Arbovirus inh repeat -7.
C=CCn1c(C)cc(C(=O)CSc2nc3ccccc3c(=O)[nH]2)c1C was read as Mtb bLac sens 26, Arbovirus inh 3, YopH PTP inh -58 and Mtb H37Rv 75%.
CCC(C)C(=O)Nc1nnc(SCC(=O)N2C(C)CCCC2C)s1 (configuration not stated) was read as Mtb bLac sens 1 and RecA intein inh -5.3.
Screening OCCN(CCO)c1ncnc2c1oc1ccc(Br)cc12 returned Mtb bLac sens -4, Arbovirus inh -1, RecA intein inh -5.2, YopH PTP inh -19 and Mtb H37Rv 0%.
`CC(C)OP(=O)(OC(C)C)C(NC(=O)c1cccc([N+](=O)[O-])c1)C(N)=O` (configuration not stated) gave Mtb bLac sens -5, Arbovirus inh 6, YopH PTP inh -14 and Mtb H37Rv 6%.
`CCOC(=O)c1cc(C(C)=O)n2ccccc12` gave Mtb bLac sens 3, Arbovirus inh -10, RecA intein inh 1.6, YopH PTP inh -14 and Mtb H37Rv -7%.
Screening COc1ccc(NS(=O)(=O)c2cccc(C(=O)NNC(=O)c3cc(C)oc3C)c2)cc1 returned Mtb bLac sens 0, Arbovirus inh -2, RecA intein inh 6.0, YopH PTP inh -32 and Mtb H37Rv 0%.
Cn1c(=O)[nH]c(=O)c2c1[nH]c(=S)n2Cc1ccc(Cl)cc1 was read as Mtb bLac sens 1 and RecA intein inh -2.3.
For O=C(COc1ccc2c3c(c(=O)oc2c1)CCC3)N1CCN(c2ccccc2)CC1 the results were Mtb bLac sens -8 and RecA intein inh 5.0.
O=C(N/C(=C\c1ccc(F)cc1)C(=O)N1CCOCC1)c1ccccc1 was read as Mtb bLac sens -4 and RecA intein inh -4.2.
COc1ccc(-n2c(SCC(=O)Nc3ccccc3)nnc2-c2ccoc2C)cc1 was read as Mtb bLac sens 5, Arbovirus inh -1, RecA intein inh 2.6, YopH PTP inh 4 and Mtb H37Rv 6%.

For reference, part of the list above.
For O=C(COc1ccc2c3c(c(=O)oc2c1)CCC3)N1CCN(c2ccccc2)CC1 the results were Mtb bLac sens -8 and RecA intein inh 5.0.
O=C(N/C(=C\c1ccc(F)cc1)C(=O)N1CCOCC1)c1ccccc1 was read as Mtb bLac sens -4 and RecA intein inh -4.2.

Next part.
For C=C1CC(C)OC(c2ccccc2OCC(O)CN2CCCCC2)C1 (configuration not stated) the results were Mtb bLac sens 1, Arbovirus inh 6, RecA intein inh 7.3, YopH PTP inh -24 and Mtb H37Rv -4%.
`CC(C)NC(=O)C1CCN(C2CCN(CC3CC=CCC3)CC2)CC1` (configuration not stated) gave Mtb bLac sens -6, Arbovirus inh -24, RecA intein inh -25 and Mtb H37Rv -3%.
`CC(Sc1nncn1C)C(=O)Nc1ccccc1-c1ccccc1` (configuration not stated) gave Mtb bLac sens 10, Arbovirus inh -1, RecA intein inh -0.1, YopH PTP inh -27 and Mtb H37Rv -19%.
Screening Cc1oc2cc(O)ccc2c(=O)c1-c1nncn1-c1ccccc1 returned Mtb bLac sens -4, Arbovirus inh 9, RecA intein inh -61 and Mtb H37Rv -2%.
Screening N/C(=N\OCc1ccc([N+](=O)[O-])cc1)c1ccccn1 returned Mtb bLac sens -6, Arbovirus inh -4 and Mtb H37Rv 11%.
`O=C(Nc1ccc(F)c(Cl)c1)C1CC2CCC1C2` (configuration not stated) gave Mtb bLac sens -1 and RecA intein inh 4.9.
Screening NC(=O)CSc1nnc(CSc2ncccn2)n1-c1ccccc1 returned Mtb bLac sens 4, Arbovirus inh 3, RecA intein inh -0.9 and Mtb H37Rv 1%.
COc1cccc(NC(=O)Cc2nnc(SCC(=O)NC3CCCCC3)n2C)c1 was read as Mtb bLac sens 9 and RecA intein inh -2.3.
CCOCCCNC(=O)CN1N=C(c2ccc(C)cc2)CCC1=O was read as Mtb bLac sens -5 and RecA intein inh 9.5.
Screening O=[N+]([O-])c1ccc(/C=N/NC(=S)Nc2ccccc2F)o1 returned Mtb bLac sens 6, Arbovirus inh -1, RecA intein inh -5.5, YopH PTP inh -5 and Mtb H37Rv 8%.
Screening CC1CCC(NC(=O)CN(C)S(=O)(=O)c2cnc[nH]2)CC1 (configuration not stated) returned Mtb bLac sens 4, Arbovirus inh -2, RecA intein inh -1.6 and Mtb H37Rv -9%.
Screening Brc1ccc(-c2csc(N3CCCCCC3)n2)cc1 returned Mtb bLac sens 7 and RecA intein inh 5.9.
CCOC(=O)c1c(NC(=O)C(Sc2ccccc2)c2ccccc2)sc(C(N)=O)c1C (configuration not stated) was read as Mtb bLac sens 8, Arbovirus inh -12, RecA intein inh 0.0, YopH PTP inh -46 and Mtb H37Rv 0%.
For Brc1ccc(-c2ccc(CNCc3ccccn3)o2)cc1 the results were Mtb bLac sens 96 and RecA intein inh 1.3.
Screening COC(=O)C1CCN(C(c2cc(OC)c(OC)c(OC)c2)c2sc3nc(C)nn3c2O)CC1 (configuration not stated) returned Mtb bLac sens 2, Arbovirus inh 4, RecA intein inh -7.3, YopH PTP inh -26, Mtb H37Rv 5% and Arbovirus inh repeat 1.
COc1ccc(NC(=O)COc2cccc(-n3cnnn3)c2)cc1 was read as Mtb bLac sens 3 and RecA intein inh 0.3.
Screening COc1cc(NC(=S)NCc2ccco2)c(OC)cc1Cl returned Mtb bLac sens -4, Arbovirus inh -6, RecA intein inh 1.6 and Mtb H37Rv 1%.
For COc1ccc(CCN(C(=O)c2ccco2)C(C(=O)NC2CCCC2)c2ccncc2)cc1OC (configuration not stated) the results were Mtb bLac sens -3, Arbovirus inh 1 and Mtb H37Rv -4%.
Screening Cc1cc(C(=O)c2ccccc2)c(NC(=O)CN2CCOCC2)s1 returned Mtb bLac sens 4, Arbovirus inh -19, RecA intein inh 0.1, YopH PTP inh -46 and Mtb H37Rv 4%.
`COc1ccccc1NC(=S)N1CCC(c2nc3cc(C)c(C)cc3[nH]2)CC1` gave Mtb bLac sens -2, Arbovirus inh 2, RecA intein inh 8.7, YopH PTP inh -52 and Mtb H37Rv -8%.
For COc1ccc(CNC(=O)c2cc3c(=O)n4ccccc4nc3n(CC3CCCO3)c2=N)cc1 (configuration not stated) the results were Mtb bLac sens -2, RecA intein inh -43 and Mtb H37Rv -3%.
For Cc1ccc(-c2ccc(CCC(=O)O)n2CC(=O)O)cc1 the results were Mtb bLac sens 0, Arbovirus inh 4, RecA intein inh -2.3, YopH PTP inh -39, Mtb H37Rv -6% and Arbovirus inh repeat 5.
For CN(C)c1ccc(/C=N/NC(=O)CCCCCNC(=O)c2ccccc2)cc1 the results were Mtb bLac sens 2 and RecA intein inh -1.1.
For CC1CCN(Cc2c(C(=O)N/N=C/c3cc(Cl)ccc3O)nnn2-c2nonc2N)CC1 the results were Mtb bLac sens 22 and RecA intein inh -3.2.
CCCS(=O)(=O)N1CCCC(C(=O)NCCCN2CCN(c3ccccc3F)CC2)C1 (configuration not stated) was read as Mtb bLac sens -14, Arbovirus inh 2, RecA intein inh -1.5, YopH PTP inh -7 and Mtb H37Rv -5%.
Cc1cc(NC(=O)COC(=O)c2ccc(S(=O)(=O)N3CCCC3)cc2)no1 was read as Mtb bLac sens -3, Arbovirus inh 0, RecA intein inh 2.7 and Mtb H37Rv 5%.
For O=C(Nc1nc(-c2cc(F)ccc2F)cs1)c1ccccn1 the results were Mtb bLac sens 97, Arbovirus inh -23, RecA intein inh 1.6 and Mtb H37Rv 3.8µM*.
For CCc1cccc(NC(=O)C2CCN(S(=O)(=O)c3ccc4[nH]c(=O)ccc4c3)CC2)c1 the results were Mtb bLac sens 14 and RecA intein inh 3.5.
For C/C(=N\Nc1ccc([N+](=O)[O-])cc1)c1cccc(N)c1 the results were Mtb bLac sens 98, Arbovirus inh -14, RecA intein inh -1.3, YopH PTP inh -34 and Mtb H37Rv 79%.
`CC(=O)N1N=C(c2cccc([N+](=O)[O-])c2)OC1c1ccc(Cl)cc1Cl` (configuration not stated) gave Mtb bLac sens -5, Arbovirus inh -7, RecA intein inh 13, YopH PTP inh 9 and Mtb H37Rv -4%.
Screening COc1ccc(N(C(=O)C(C)C)S(=O)(=O)c2ccc3ccccc3c2)cc1 returned Mtb bLac sens 6 and RecA intein inh 0.1.
`O=C(Nc1ccccc1)c1cnc(-c2ccccc2)nc1-c1ccccc1` gave Mtb bLac sens 18, Arbovirus inh -15, RecA intein inh 3.6, YopH PTP inh -22 and Mtb H37Rv 3%.
For COc1ccc(CCN2C(=O)CC(NNC(=O)c3ccc(F)cc3)C2=O)cc1OC (configuration not stated) the results were Mtb bLac sens -2, Arbovirus inh -1, RecA intein inh -1.7, YopH PTP inh -34 and Mtb H37Rv -5%.
For O=C(NNC(=O)c1cc(-c2ccccc2)nc2ccccc12)c1csc(N2CCOCC2)n1 the results were Mtb bLac sens 58 and RecA intein inh 4.7.
For Cc1ccc(S(=O)(=O)N2CC(C)N(C(=O)N3CCOCC3)C2C)cc1 (configuration not stated) the results were Mtb bLac sens -4 and RecA intein inh 2.1.
COc1ccc(CCNC(=O)c2c(O)c3ccccc3[nH]c2=O)cc1OC was read as Mtb bLac sens 9 and RecA intein inh -2.1.
Screening NC(=O)NCC1CC1 returned Mtb bLac sens -10, Arbovirus inh 10, RecA intein inh -0.1 and Mtb H37Rv -13%.
For CC1=NN(C(N)=S)C(=O)C1N=Nc1cc(Cl)ccc1Cl (configuration not stated) the results were Mtb bLac sens 6 and RecA intein inh 0.8.
`CCCN1Cc2cccc(C(=O)Nc3ccc(S(=O)(=O)N4CCCCCC4)cc3)c2C1=O` gave Arbovirus inh -7, YopH PTP inh -45 and Mtb H37Rv 7%.
`N#Cc1ccccc1NC(=O)CN1CCOCC1` gave Mtb bLac sens 2 and RecA intein inh 1.8.
Screening CCOC(=O)c1c(-c2ccc(Cl)cc2)csc1NC(=O)CNCc1ccco1 returned Mtb bLac sens 21 and RecA intein inh 16.
For CC(C)=CCc1c(O)cc2oc3c(CC=C(C)C)c(O)c(O)c(CC=C(C)C)c3c(=O)c2c1O the results were Mtb bLac sens -5, RecA intein inh -1.9 and Mtb H37Rv -4%.
For Nc1ncn[nH]1 the results were Mtb bLac sens -4 and RecA intein inh 1.6.
Screening Cc1cc(S(=O)(=O)N2CCCC(N3CCOCC3)C2)c(C)cc1Cl (configuration not stated) returned Mtb bLac sens -2 and RecA intein inh 0.8.
CCOC(=O)C(C)S(=O)(=O)c1ccc(C(F)(F)F)cn1 (configuration not stated) was read as Mtb bLac sens -10, Arbovirus inh 4, RecA intein inh 1.3, YopH PTP inh -32 and Mtb H37Rv -8%.

The list goes on, overlapping the part above by three compounds.
For Nc1ncn[nH]1 the results were Mtb bLac sens -4 and RecA intein inh 1.6.
Screening Cc1cc(S(=O)(=O)N2CCCC(N3CCOCC3)C2)c(C)cc1Cl (configuration not stated) returned Mtb bLac sens -2 and RecA intein inh 0.8.
CCOC(=O)C(C)S(=O)(=O)c1ccc(C(F)(F)F)cn1 (configuration not stated) was read as Mtb bLac sens -10, Arbovirus inh 4, RecA intein inh 1.3, YopH PTP inh -32 and Mtb H37Rv -8%.
For CC(OC(=O)Cc1coc2cc3c(cc12)CCC3)C(=O)NC(N)=O (configuration not stated) the results were Mtb bLac sens 29, Arbovirus inh 3, RecA intein inh 1.2 and Mtb H37Rv 10%.
`O=C(Nc1ccc(F)cc1F)c1cccn(Cc2ccccc2)c1=O` gave Mtb bLac sens -7, Arbovirus inh 16, RecA intein inh 2.0 and Mtb H37Rv 8%.
`COc1ccccc1N1CCN(C(=O)CSc2nnc(-c3ccoc3C)o2)CC1` gave Mtb bLac sens 89, Arbovirus inh 4, RecA intein inh 3.6, YopH PTP inh -3 and Mtb H37Rv 0%.
Screening O=C(c1cnn(-c2nc3ccccc3s2)c1)c1ccccc1O returned Mtb bLac sens -1, Arbovirus inh -4, RecA intein inh 1.2, YopH PTP inh -14 and Mtb H37Rv 7%.
`Nc1c(C(=O)O)cnn1-c1ccccc1` gave Mtb bLac sens -1, Arbovirus inh -2, RecA intein inh -3.4 and Mtb H37Rv 0%.
CN(C(=O)COC(=O)COc1ccccc1Cc1ccccc1)c1ccccc1 was read as Mtb bLac sens 56 and RecA intein inh 12.

An excerpt. The share of hits here may be higher or lower than overall.
